ALR inh = inhibitors of human ALR sulfhydryl oxidase, primary screen, biochemical, H2O2 detection, HRP-luminol luminescence, single point. FAD-linked sulfhydryl oxidase ALR (Homo sapiens), P55789. purified ALR, DTT oxidation. inhibition, % (concentration not given with the values). 290,000 tested, 3.8% active. AID 485317, 2010;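 active = mean and each replicate at 75% or more; inconclusive = only one of the two met; inactive = neither met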;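 also: stock transfer was 7.5 nL into about 7.5 µL; 0% = neutral wells and 100% = wells with inactivated enzyme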
Target sequence (P55789 whole entry, looked up): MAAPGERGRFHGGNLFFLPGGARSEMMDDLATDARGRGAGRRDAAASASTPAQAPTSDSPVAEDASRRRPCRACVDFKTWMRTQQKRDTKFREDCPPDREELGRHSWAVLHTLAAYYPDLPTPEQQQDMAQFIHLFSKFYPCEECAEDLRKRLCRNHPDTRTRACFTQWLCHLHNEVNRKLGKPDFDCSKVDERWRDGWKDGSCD
AF4-AF9 inh = inhibitors of AF4 peptide binding to AF9, primary screen, biochemical, AlphaScreen, biotin-AF4 peptide, FLAG-AF9, single point. inhibition, % at 10 µM. 350,000 tested, 0.47% active;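 active = every replicate reaching a set inhibition limit, whatever the replicate mean, cut at about 25% in these data; inconclusive = mean inhibition reaches that limit but some replicates miss it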;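 also: 0% = plate neutral control median and 100% = total signal loss; the record names both 10 and 1 µM as test concentration; the first replicate is given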
Target sequence (P42568 whole entry, looked up): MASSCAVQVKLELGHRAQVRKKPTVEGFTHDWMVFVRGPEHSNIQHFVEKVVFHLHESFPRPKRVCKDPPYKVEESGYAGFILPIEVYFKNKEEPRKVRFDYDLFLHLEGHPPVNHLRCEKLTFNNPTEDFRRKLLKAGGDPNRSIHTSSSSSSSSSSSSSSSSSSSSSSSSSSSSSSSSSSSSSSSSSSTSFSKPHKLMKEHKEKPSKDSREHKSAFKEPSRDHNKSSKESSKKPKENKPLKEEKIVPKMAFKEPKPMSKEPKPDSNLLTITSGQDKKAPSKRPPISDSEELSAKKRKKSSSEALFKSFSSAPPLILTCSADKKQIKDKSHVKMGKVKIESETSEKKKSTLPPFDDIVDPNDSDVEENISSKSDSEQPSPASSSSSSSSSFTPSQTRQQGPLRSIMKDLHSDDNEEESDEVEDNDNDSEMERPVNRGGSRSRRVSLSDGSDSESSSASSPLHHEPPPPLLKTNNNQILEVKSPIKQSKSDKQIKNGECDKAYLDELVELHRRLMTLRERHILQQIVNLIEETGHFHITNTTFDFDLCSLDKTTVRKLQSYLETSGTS
RanGTP-Imp inh = inhibitors of RanGTP-importin-beta interaction, primary screen, biochemical, FRET, CFP-Ran, YFP-importin-beta, homogeneous. 300,000 tested, 1.1% active. cell-free CFP-Ran/YFP-importin-beta FRET ratio. Ran GTPase (GTP-bound) - importin-beta complex. inhibition, % (concentration not given with the values). AID 2216, 2009;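 active = most replicates above 15%; inconclusive = exactly half above 15%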;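 also: 0% = DMSO wells and 100% = Ran loaded with GDP instead of GTP; wells of about 40 µL received 100 nL stock; the first replicate is given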
Calb FLC = C. albicans growth inhibition with fluconazole, primary screen, CaCi-2 strain, Alamar Blue fluorescence | C. albicans CaCi-2 (fluconazole-resistant clinical isolate) + fluconazole, 48 h | 300,000 tested, 0.57% active | growth inhibition, % (concentration not given with the values) | AID 1979, 2009;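 active = most replicates above 75%; inconclusive = exactly half above 75%; inactive = most below 75%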;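 also: all wells also contain fluconazole at 8 µg/ml as a sub-toxic cotreatment; 0% = median of DMSO wells and 100% = median of geldanamycin control wells; wells of about 8 µL received 7.5 nL stock; the first replicate is given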
FGF22 binding = binders of human FGF22 protein, primary screen, FGF22 synaptogenesis inhibitor project, biophysical, thermal shift, single point | Fibroblast growth factor 22 (Homo sapiens), Q9HCT0 | recombinant FGF22 thermal shift, SYPRO orange fluorescence; percent of sucrose octasulfate shift, DMSO zero | calls only at 9.99 µM | 340,000 tested, 1.5% active;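 active = melting point raised past a set limit in the mean and every replicate; inconclusive = no clear call; three in four hits are not shown here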
Target sequence (Q9HCT0 whole entry, looked up): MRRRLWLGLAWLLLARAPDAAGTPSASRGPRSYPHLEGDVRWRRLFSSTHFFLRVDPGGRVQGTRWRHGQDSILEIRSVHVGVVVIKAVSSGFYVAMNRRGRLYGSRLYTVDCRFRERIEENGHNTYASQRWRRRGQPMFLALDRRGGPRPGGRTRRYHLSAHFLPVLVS
T cruzi inh = inhibitors of intracellular T. cruzi growth, primary screen, luminescence, NIH3T3 host cells. 300,000 tested, 1.4% active. AID 1885, 2009. T. cruzi beta-gal in NIH3T3, 90 h. inhibition, % (concentration not given with the values);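 active = mean inhibition across valid replicates above about 55%, limit read from the data; inconclusive = mean below that limit but half or more replicates reach it; inactive = mean below it, under half of replicates reach it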;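 also: signal also drops with host cell toxicity which is not excluded here; 0% = plate median of DMSO wells and 100% = zero luminescence signal; higher percent means less beta-gal luminescence so fewer parasites; stock transfer was 50 nL into about 50 µL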
Beta cell apopt = inhibitors of cytokine-induced beta cell apoptosis, primary screen, luminescence; INS-1E cytokine-induced death, ATP luminescence, 48 h; percent of positive-control rescue, neutral wells zero; protection from apoptosis, % (concentration not given with the values); 300,000 tested, 0.8% active; AID 435005, 2010;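 active = all replicates at 75% or more, or half of them and the mean; inconclusive = half reach 75% but not the mean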;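 also: 0% = cytokine-treated negative control wells and 100% = positive control rescue; higher means more ATP so stronger rescue from cytokine killing; wells of about 40 µL received 100 nL stock; the first replicate is given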
Ecoli rRNA inh = reduced GFP signal of wild-type E. coli, primary screen, bacterial rRNA inhibitor project, GFP/RFP fluorescence, OD600, single point. E. coli WT GFP vs humanized-ribosome RFP mutants, 24 h; hits give low values; DMSO median 0, no signal -100. GFP signal change (wild-type ribosome), % (concentration not given with the values). 350,000 tested, 1.6% active;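 active = significant combined selectivity score with lowered wild-type GFP, culture density cut under 30%, mutant RFP and density less affected; inactive = any of these conditions unmet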; also: one replicate is shown; some compounds called inactive have numbers as strong as hits
Ecoli rRNA inh OD600 = second read-out of Ecoli rRNA inh, no call of its own (marks repeat the call); OD600 change, %; measured here: OD600 growth;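 optical density of the mix in the first replicate; 0 = DMSO median and -100 = no signal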
Ecoli rRNA inh RFP = recorded beside Ecoli rRNA inh, whose call it bears; RFP signal change, %; measured here: RFP humanized mutant strains;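 first replicate; 0 = DMSO median and -100 = no signal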
An asterisk follows results filed as active; i = inactive; ? = inconclusive; / = not tested or not shown; & = joins results of further samples. Only part of the results is shown; count on the stated rates, not on these rows.

mol,Beta cell apopt,RanGTP-Imp inh,Calb FLC,T cruzi inh,Ecoli rRNA inh,AF4-AF9 inh,Ecoli rRNA inh OD600,ALR inh,Ecoli rRNA inh RFP,FGF22 binding
CCOc1cc(C2CC(=O)NC3=C2C(=O)C(C(=O)OC)C(C)C3)cc(Cl)c1O (stereo not drawn),-3,0.0,3,-7,/,/,/,22,/,/
COc1ccccc1-c1nc(C#N)c(N2CCN(Cc3ccccc3)CC2)o1,4,-7.2,-6,31,/,/,/,-22,/,/
Cc1ccc(S(=O)(=O)NNC(=O)c2ccccc2-n2cccc2)cc1,1,0.2,4,-15,-8,0.7,-7,10,4.2,i
CC(=O)Nc1cccc(-c2nnc(-c3ccccc3)o2)c1,-2,0.2,18,-4,/,/,/,/,/,/
CCCC(=O)Nc1cccc(-c2cn3ccsc3n2)c1,4,3.0,-15,6,/,/,/,-12,/,/
Cc1[nH]n(-c2ccccc2)c(=O)c1C=Nc1ccc(S(=O)(=O)Nc2nccs2)cc1,-1,-4.6,-10,2,/,8.0,/,9,/,i
Cn1ncc(Cl)c1C(=O)N1CCN(c2ccccc2)CC1,/,-4.7,9,-11,10,-0.1,-3,27,-0.9,i
Cc1ccccc1CS(=O)(=O)Cc1ccc(C(=O)NCC2CCCO2)o1 (stereo not drawn),-1,3.8,14,0,5,-8.9,-11,-13,-1.0,i
O=C1CC(c2ccccc2)c2cc(O)ccc2O1 (stereo not drawn),-8,-1.0,6,24,4,2.5,14,62,52,i
CCCCOc1ccc(NC(=O)CSc2nnnn2C)cc1,/,-2.6,8,-5,/,/,/,-10,/,/
O=C1CC(=C(c2ccccc2)c2ccccc2)C(=O)N1CCCN1CCN(c2cccc(Cl)c2)CC1,-12,7.7,12,40,/,/,/,-2,/,/
CCn1c(/N=C/c2ccccc2O)nc2ccccc21,-1,-0.1,19,2,15,1.1,7,/,-0.4,i
O=C(NCc1ccccc1)c1ccc(Cl)cc1[N+](=O)[O-],-2,-4.0,-8,-17,/,/,/,-6,/,/
CC1=C(C(=O)Nc2ccc(C)cc2C)C(c2ccc([N+](=O)[O-])cc2)n2ncnc2N1 (stereo not drawn),10,2.7,6,0,/,/,/,/,/,/
O=C(NCC1COc2ccccc2O1)c1ccc(Cl)c(S(=O)(=O)N2CCOCC2)c1 (stereo not drawn),-2,/,/,/,-6,-0.6,-7,0,4.4,i
O=C(c1ccc(Oc2ccc(C(F)(F)F)cc2[N+](=O)[O-])cc1)N1CCOCC1,3,-4.7,4,6,2,2.4,0,/,-3.2,i
OC(CSc1c(Cl)cccc1Cl)CN1CCN(c2ccc(F)cc2)CC1 (stereo not drawn),5,5.4,7,37,/,/,/,26,/,/
CCN(CC)CCNC(=O)c1cc(Sc2nnc(C)s2)nc2ccccc12,-2,3.7,-5,2,/,/,/,-6,/,/
CC(C)(C)c1ccc(CS(=O)(=O)CC2(O)CCN(C(=O)c3cccc(C(F)(F)F)c3)CC2)cc1,/,0.8,2,-11,/,/,/,-30,/,/
O=C(COC(=O)CCC1CCCCC1)Nc1ccc(OC(F)F)cc1,0,1.5,10,-9,/,/,/,-3,/,/
CCCOc1ccc(N2C(=O)CC(NCC(=O)OCC)C2=O)cc1 (stereo not drawn),-4,0.0,6,0,5,-5.4,10,-5,1.0,i
Cc1cccc(OCCOC(=O)c2c(-c3ccccc3)noc2C)c1,32,1.9,-7,11,-6,-0.1,-18,/,-1.6,i
COc1ccc(N2C(=O)CCC(C(=O)c3ccccc3)=C2C)cc1,0,0.5,22,-7,8,/,-2,-1,1.4,/
CN(C)CCNC(=O)c1ccc(-c2nn(C)c(=O)c3ccccc23)cc1,-13,-2.3,?,-1,/,/,/,-10,/,/
CCCN(Cc1nnc(-c2ccccc2Cl)o1)C(=O)c1oc2ccccc2c1C,2,/,-1,8,-15,-1.7,-12,-4,13,i
NNc1nc(-c2ccccc2)cc(-c2ccc(Br)cc2)n1,7,-1.9,4,16,-25*,-4.7,-8.5*,1,0.8*,i
COCC(=O)Nc1c(C(=O)N2CCCC2)oc2ccccc12,-9,-3.3,1,-18,-4,1.9,-6,-5,1.7,i
COc1ccccc1NC(=O)Nc1nc(CC(=O)Nc2ccc(N(C)C)cc2)cs1,/,-5.5,1,49,-4,13,1,49,4.7,i
Cc1ccc(C(=O)Nc2ccc(CN3CCCCC3)cc2)c(C)c1,6,-1.3,1,0,16,1.9,9,-4,2.2,i
NC(=O)CC(NC(=O)Cc1ccc(Cl)cc1)c1ccc(NCCOc2ccccc2)c([N+](=O)[O-])c1 (stereo not drawn),-2,-2.7,2,12,8,-0.3,5,-6,-3.1,i
COC(=O)CC1C(=O)NCCN1C(=O)c1ccc([N+](=O)[O-])cc1 (stereo not drawn),-2,-4.2,4,-19,-5,-1.1,6,-46,-1.9,i
CCCCCCCCCCCCN1C(=O)CSC1c1cccnc1 (stereo not drawn),9,-5.2,24,38,-17,0.2,-11,-4,-1.7,i
COc1ccc(CCn2c(=N)c(C(=O)NCc3ccco3)cc3c(=O)n4cccc(C)c4nc32)cc1,0,21*,9,25,/,/,/,-3,/,/
COc1ccc2oc(C(=O)Nc3nc(C)cs3)c(C)c2c1,10,/,/,/,4,0.6,2,-5,-0.6,i
Cc1ccc(NC(=O)CSCC(=O)NNC(=O)c2ccoc2C)cc1,/,-0.2,-6,-5,7,7.3,19,-6,-1.3,i
Cc1cc(/C=C2/NC(=O)N(Cc3ccccc3F)C2=O)c(C)n1C,-2,/,-11,15,11,1.2,10,0,-1.1,i
Cn1c(Cn2c(=O)sc3ccccc32)nnc1SCC(=O)N1CCN(c2ccccc2)CC1,0,-2.1,-6,-3,-2,0.2,-4,31,0.2,i
O=C(CCC(=O)c1ccc(Br)cc1)Nc1ccc(F)cc1,-2,1.4,13,-12,7,0.3,8,0,2.0,i
COC(=O)CSc1ncnc2c(C)csc12,-9,2.5,-9,-13,-4,/,3,0,-2.4,i
O=C(COc1cc2oc(=O)c3c(c2cc1Cl)CCC3)NCCCn1ccnc1,3,-4.6,-1,12,-17*,-3.2,1.3*,3,1.7*,i
CC(C)c1ccc(NC(=O)[C@H](Cc2c[nH]c3ccccc23)NC(=O)[C@@H]2Cc3ccccc3CN2)cc1,-2,4.1,25,17,5,3.3,0,-7,-3.3,i
O=C(O)C1=C[C@@H](c2csc3ccccc23)C[C@@H](OCc2ccc(CO)cc2)O1,-10,3.4,-5,-18,-20,-2.6&-7.8,-28,/,-21,i
CCCN1CCC(=O)N([C@H](COc2ccccc2)c2ccccc2)CC1,-1,2.5,-7,-3,2,-3.0,6,6,-15,i
CCc1cc2cc(C(=O)Nc3ccccc3F)sc2s1,-2,-0.3,-3,-9,/,/,/,4,/,/
Cc1[nH]n(C2=NCCS2)c(=O)c1N=Nc1ccccc1,-16,-2.8,-17,-3,2,-1.1,9,92*,-0.4,i
COc1ccc(CCNC(=O)CN(Cc2ccc(Cl)cc2)S(C)(=O)=O)cc1,-8,6.2,0,-14,-2,3.6,1,-6,-0.8,i
COc1ccc(CCNc2oc(-c3ccccc3OC)nc2C#N)cc1OC,1,-2.1,-2,-10,/,/,/,11,/,/
CCOc1ccc(NCc2nnc(SCc3ccc(Cl)cc3)n2-c2ccccc2)cc1,-27,-1.0,-6,13,/,/,/,-10,/,/
Cc1cc(C(=O)NCc2cc(C)n(C)n2)sc1-c1ccccc1,4,1.8,6,-17,/,/,/,-14,/,/
Fc1cc(Cl)ccc1NC1=NCCCCC1,-7,5.8,-12,8,7,2.1,13,3,-1.5,i
CCNC(=S)N1CCN(c2cccc(C(F)(F)F)c2)CC1,3,0.9,-11,15,/,/,/,12,/,/
CCOC(=O)/C=C/C(=O)Nc1ccccc1-c1ccccc1NC(=O)/C=C/C(=O)OCC,-5,1.5,1,5,20,-0.5,12,/,-5.1,i
Nc1c(C(=O)CSc2nnc(-c3ccccc3F)o2)c(=O)[nH]c(=O)n1C1CC1,-6,/,/,/,9,-3.7,11,-3,0.6,i
COc1ccc(-c2cn(CCC(=O)O)c(C)n2)cc1,-2,/,/,/,11,-1.0,6,/,2.1,i
COc1ccc(S(=O)(=O)N(CC(=O)NC2CC2)C2CCCCC2)cc1Cl,-4,?,17,3,/,/,/,1,/,/
O=C(COc1ccc(Cl)cc1)NCC(=O)N/N=C/c1cccs1,-5,2.2,3,-4,14,0.7,12,2,6.0,i
COc1ccc(C(=O)/C(C)=N/O)cc1OC,7,1.1,-6,-11,-2,1.6,4,0,-4.7,/
C=CCNC(=S)N(CC=C)C1CCS(=O)(=O)C1 (stereo not drawn),1,3.3,15,-7,/,/,/,1,/,/
Cc1cc(NC(=O)CSc2nc(-c3cccs3)nc3ccccc23)no1,43,/,/,/,10,1.8,9,-14,4.6,i
CCCCC(=O)OCC(=O)N1N=C(c2c[nH]c3ccccc23)C(O)C1c1ccc(OC)cc1 (stereo not drawn),0,2.0,/,-15,-6,5.8,-2,-11,0.8,i

More compounds
mol,Beta cell apopt,RanGTP-Imp inh,Calb FLC,T cruzi inh,Ecoli rRNA inh,AF4-AF9 inh,Ecoli rRNA inh OD600,ALR inh,Ecoli rRNA inh RFP,FGF22 binding
Cc1cc(OCc2nnc(SCC(=O)O)n2-c2ccccc2)ccc1Cl,0,-0.6,-9,-9,-10,-0.2,-11,35,0.8,i
COc1ccc(S(=O)(=O)Nc2ccc3c(c2)N(C(C)=O)CCC3)cc1,24,-0.9,-6,-5,-11,0.2,-11,/,1.8,i
CC(=C/c1ccco1)/C=N/NC(=O)c1nnn(-c2nonc2N)c1CN(C)C,-6,-5.9,29,13,17,1.1,16,-16,5.1,i
Cc1ccc(C(=O)c2c3ccccc3[n+]([O-])n2CCO)cc1,0,-5.8,-1,-16,8,-3.4,-8,22,-6.0,i
COc1ccc(-c2noc3c2-c2nc(-c4ccc(C)cc4)sc2CC3)cc1,-1,-3.7,0,-5,/,/,/,-9,/,/
CCOC(=O)c1sc(NC(=O)CNC(=O)Cn2cnc3sc(C)c(C)c3c2=O)nc1C,4,-4.0,-19,-4,/,/,/,7,/,/
CNC(=S)N1CCN(c2ccccc2OC)CC1,-2,-1.6,5,-3,/,/,/,39,/,/
Cc1cccc(C(=O)NNS(=O)(=O)c2ccccc2[N+](=O)[O-])c1,-5,-1.9,-16,-10,/,/,/,-5,/,/
